KCNQ2 inh: KCNQ2 potassium channel inhibitors, primary screen, cell-based, CHO-K1, FluxOR thallium flux, B-score (AID 2156) | B-score at 10 µM | Potassium voltage-gated channel subfamily KQT member 2 (Rattus norvegicus), O88943 | 20 min; hits give low values; only compounds with negative scores are shown here; some inactives read as strong as hits | hit rate 1.1% among 310,000;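 active = fluorescence ratio B-score at most minus 3 library SDs, with starting brightness B-score within 2 library SDs, cut at about -5.5 in these data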
Target sequence (O88943 whole entry, looked up): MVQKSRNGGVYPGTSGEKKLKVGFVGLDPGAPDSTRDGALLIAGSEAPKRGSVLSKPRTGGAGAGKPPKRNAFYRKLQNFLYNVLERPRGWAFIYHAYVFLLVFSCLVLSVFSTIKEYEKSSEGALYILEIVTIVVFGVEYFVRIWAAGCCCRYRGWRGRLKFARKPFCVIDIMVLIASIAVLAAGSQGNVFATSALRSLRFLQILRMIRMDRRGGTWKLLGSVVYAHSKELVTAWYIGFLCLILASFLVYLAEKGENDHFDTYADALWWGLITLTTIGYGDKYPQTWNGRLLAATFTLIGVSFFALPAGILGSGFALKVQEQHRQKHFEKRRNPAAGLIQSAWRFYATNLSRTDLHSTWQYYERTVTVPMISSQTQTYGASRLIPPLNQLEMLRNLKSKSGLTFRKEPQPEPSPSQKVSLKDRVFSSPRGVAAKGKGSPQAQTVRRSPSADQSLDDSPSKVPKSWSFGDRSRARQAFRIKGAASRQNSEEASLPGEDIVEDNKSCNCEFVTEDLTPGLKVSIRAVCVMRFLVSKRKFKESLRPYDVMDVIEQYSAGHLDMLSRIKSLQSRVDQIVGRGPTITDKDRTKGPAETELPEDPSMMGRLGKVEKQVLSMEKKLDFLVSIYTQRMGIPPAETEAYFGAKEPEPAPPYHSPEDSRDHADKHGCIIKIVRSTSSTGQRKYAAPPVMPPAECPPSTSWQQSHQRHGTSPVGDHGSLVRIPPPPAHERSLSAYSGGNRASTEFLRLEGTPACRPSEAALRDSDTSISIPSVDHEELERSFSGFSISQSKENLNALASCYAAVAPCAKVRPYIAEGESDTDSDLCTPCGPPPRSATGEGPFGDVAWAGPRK
KCNQ2 inh baseline: recorded beside KCNQ2 inh, whose call it bears; B-score; measured here: initial fluorescence intensity artifact check;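 brightness before thallium and not channel activity; 0 = typical well and far values either way flag optical interference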
The depositor's hits bear a star; i = inactive.

molecule | KCNQ2 inh | KCNQ2 inh baseline
COc1ccc(CNC(=O)c2cc3c(s2)CS(=O)C3)cc1 (configuration not stated) | i | -0.25
COc1c2ccccc2c(OC)c2ccccc12 | i | -0.79
C[C@H](NC(=O)C1CCC(CNC(=O)[C@@H]2CCCN2C(=O)OC(C)(C)C)CC1)C(=O)O (some centres not stated) | i | -0.06
O=S(=O)(Cc1c(F)cccc1Cl)c1ncn[nH]1 | i | -0.42
Cc1ccc(C(=O)NNC2=Nc3cc([N+](=O)[O-])ccc3OC2)cc1 | i | -0.16
COc1ccc(CCN2CC(C(=O)NCCc3ccccc3C)CCC2=O)cc1 (configuration not stated) | i | -0.18
Cc1ccccc1-c1nc(CS(=O)(=O)CC(=O)NC2CC2)c(C)o1 | i | -0.85
Cc1ccc(S(=O)(=O)Nc2cc(Cl)c(O)c3ncccc23)cc1 | i | -0.01
CCOC(=O)NC1(C(F)(F)F)C(=O)NC(C)=C1C(=O)OC (configuration not stated) | i | -0.05
CCOC(=O)c1c(C)[nH]c(C)c1C(=O)COC(=O)/C=C/c1cccc(F)c1 | i | 2.3
COc1cc(C(=O)Nc2ccc(S(=O)(=O)Nc3ncccn3)cc2)c([N+](=O)[O-])cc1OC | i | 1.4
FC(F)(F)c1cnc(N2CCSCC2)c(Cl)c1 | i | 0.07
COc1ccccc1-n1c(SCC(=O)c2ccc(O)cc2O)nc2cc([N+](=O)[O-])ccc21 | i | -2
CCOC(=O)C1CCN(C(=O)CN(Cc2ccc(Cl)cc2)S(C)(=O)=O)CC1 | i | 1.6
Cc1ccc(C)c(OCC(=O)Nc2cc(C)on2)c1 | i | -0.89
O=C1c2cccc3c(O)ccc(c23)C(=O)N1Cc1ccccc1 | i | 65
COC(=O)C(Cc1cccc(C)n1)(c1ccccc1)c1ccccc1 | i | 0.89
CCN1CCN(S(=O)(=O)c2ccc(Cl)c(C(=O)Nc3ccccc3N3CCCC3)c2)CC1 | i | -1.1
CN(C(=O)C1CCCCC1)C1(C)CCS(=O)(=O)C1 (configuration not stated) | i | 1.1
CC(Sc1ncn[nH]1)C(=O)NCc1ccccc1 (configuration not stated) | i | 1.4

Some of the entries above in another layout.
KCNQ2 inh	KCNQ2 inh baseline	SMILES
i	-2	COc1ccccc1-n1c(SCC(=O)c2ccc(O)cc2O)nc2cc([N+](=O)[O-])ccc21
i	1.6	CCOC(=O)C1CCN(C(=O)CN(Cc2ccc(Cl)cc2)S(C)(=O)=O)CC1

(list continues)
molecule | KCNQ2 inh | KCNQ2 inh baseline
CC(C)c1ccc(S(=O)(=O)Nc2ccc(O)c(Sc3ncn[nH]3)c2)cc1 | i | 1.6
CC(C)(C)OC(=O)N1CCCN(C(=O)Nc2ccc(OC(F)(F)F)cc2)CC1 | i | 0.85
CCOC(=O)c1cccc(N/C=C/C(=O)c2ccc(OC)c(OC)c2)c1 | i | -0.07
CC(C)CNC(=S)N1CCC(Cc2ccccc2)CC1 | i | -1.9
COc1ccc(NC(=O)CSc2nnc(C3CCCCC3)n2N)cc1OC | i | -0.06
Cc1ccc(C(=O)NNC(=S)NC(=O)c2ccc(Cl)cc2Cl)cc1 | i | -0.92
NC(=O)Cn1c(=O)n(CCC(=O)Nc2ccc(F)cc2)c(=O)c2sccc21 | i | -2.1
CCN1CCCC1CN(Cc1cc2ccc(C)cc2[nH]c1=O)C(=S)Nc1ccc(F)cc1 (configuration not stated) | i | -0.06
COc1ccc(C)cc1S(=O)(=O)N(C)CC(=O)N1CCN(c2ccccc2)CC1 | i | 1.3
O=[N+]([O-])c1ccccc1SNc1ccccn1 | i | -1.4
O=C(CCn1c(=O)[nH]c2ccsc2c1=O)N(CCc1ccccc1)Cc1ccccc1 | -7.4* | -3.1*
CC(C)NCC(O)COc1cccc2ccccc12 (configuration not stated) | i | 2
Cc1c(NC(=O)CN2C(=O)NC(C)(c3ccccc3)C2=O)c(=O)n(-c2ccccc2)n1C (configuration not stated) | i | 1.1
O=C(NN1C(=O)C2C(c3ccccc3)C=CC(c3ccccc3)C2C1=O)c1ccccc1 (configuration not stated) | i | -1.3
COc1ccccc1C(=O)Nc1cccc2cccnc12 | i | 0.02
CCOc1ccc(/C=C/C(=O)c2c(O)cc(C)oc2=O)cc1 | i | 0.62
CCOCCCNC(=S)Nc1ccc2nc(N3CCOCC3)cc(C)c2c1 | i | 1.3
CCOc1cc(S(=O)(=O)Nc2ccccn2)ccc1F | i | 1.3
CCN1/C(=C2\OC(=S)N(C)C2=O)C=Cc2ccccc21 | i | 2.3
Cc1ccc(-c2ccc(CCC(=O)O)n2-c2ccc(C(=O)O)cc2)cc1 | i | 1.4
CNc1nc(Cl)c(SC)c(N2CCOCC2)n1 | i | 0.25
OC1CCN(c2c3c(nc4cc(-c5ccc(F)cc5)nn24)CCC3)CC1 | i | 2.9
O=C(/C=C/c1ccco1)NCC(=O)N/N=C/c1ccc([N+](=O)[O-])cc1 | i | 0.81
Cc1ccc(/C=C2\SC(=S)N(CCC(=O)N3CCCCC3)C2=O)cc1 | i | 0.56
Cc1cc(C)nc(Nc2cccc(C(F)(F)F)c2)n1 | i | 0.31
Nn1c(-c2ccccc2)nc2cc(Cl)ccc2c1=O | i | 0.8
COc1nc(N(C)S(=O)(=O)c2ccc(C)cc2)nc(C)c1Br | i | 0.69
Cc1nc2ccccc2nc1OCc1cccc(Cl)c1 | i | -0.03
O=C(c1ccccc1)c1ccc(OC(=O)C2CCCCC2)cc1 | i | 2.2
CCc1nnc(NC(=O)c2cccc(S(=O)(=O)N3CCc4ccccc43)c2)s1 | i | -1.3
COc1ccc(-c2ccnc3nc(N4CCOCC4)nn23)cc1 | i | 0.14
O=C(CCN1CCN(c2ccc([N+](=O)[O-])cc2)CC1)c1ccc(Cl)cc1 | i | 1.8
Cc1nn(-c2ccccc2)c(C)c1C(=O)OCC(=O)NCc1ccco1 | i | -0.47
Cc1cc(=O)n2[nH]c(NCc3c(F)cccc3Cl)nc2n1 | i | 0.7
COc1ccc(S(=O)(=O)N2CCOC2CNC(=O)C(=O)NCCCN2CCOCC2)cc1C (configuration not stated) | i | -0.86
CCOC(=O)c1c(C)c(C(=O)N2CCCCCC2)c(C)n1C | i | 1.6
O=C(CSCc1ccccc1)NNC(=S)Nc1cccc(Cl)c1Cl | i | -0.03
CCOc1c2ccc(C(=O)NCc3ccco3)cc2nn1CC | i | -0.02
Cc1ccc(N(C(=O)c2ccccn2)C2(C(=O)NC3CCCC3)CCCCC2)cc1 | i | -0.87
CN(C(=O)Nc1ccc(C(C)(C)C)cc1)C1CCCCC1 | i | 0.58
CC(C)c1ccc(OCC(=O)N2CCN(c3ccccn3)CC2)c(Br)c1 | i | 0.15
COc1cccc(CC2(CO)CCCN(Cc3ccc(OC)c(C)c3OC)C2)c1 (configuration not stated) | i | -0.06
CN(C)C=Nc1nc2ccccc2nc1N1CCCC1 | i | 1.6
O=C(NCCN1CCOCC1)C1CCC(=O)N1Cc1ccc(F)cc1 (configuration not stated) | i | 0.57
O=C(CNC(=O)c1cccc(F)c1)OCC(=O)N1CCCCC1 | i | 0.73
COc1ccccc1NC(=O)c1coc(=O)c(Br)c1 | i | 0.03
CCOC(=O)c1cnc(SC)nc1Sc1cc(Cl)ccc1Cl | i | -1
O=S(=O)(/N=C(\Sc1ccc(Cl)cc1)c1ccccc1)c1ccccc1 | i | 0.26
O=S(=O)(NCC1CCCN(Cc2ccccc2O)C1)c1cccc2cccnc12 (configuration not stated) | i | -0.33
CCC(Sc1nc2cc3c(cc2c(=O)n1Cc1ccco1)OCO3)C(=O)Nc1cccc(OC)c1 (configuration not stated) | i | 2.7
CC(=O)Nc1ccc(C(=O)Nc2ccncc2)cc1 | i | -0.41
CC1CCc2ccccc2N1C(=O)c1cccs1 (configuration not stated) | i | 0.42
CCCCCCCCCCCCN1[C@@H](CC(=O)OC)c2cc(F)ccc2S1(=O)=O | i | 0.62
CCN(CC)c1ccc(/C=N/NC(=O)c2cnccn2)cc1 | i | 2.5
O=C(NC1CCCCC1)C(c1ccc2ncccc2c1)N(Cc1ccc2c(c1)OCO2)C(=O)c1ccc2c(c1)OCCO2 (configuration not stated) | i | 0.01
CCOC(=O)c1cc(-c2ccccc2)nn1CC1CC(c2ccc(Cl)cc2)=NO1 (configuration not stated) | i | -1.6
Cc1cc[n+](CC(=O)c2ccccc2)c2ccccc12 | i | 1.2
C=CCOc1ccccc1CNc1cccc(F)c1 | i | 1.4
CCn1c(=N)n(CC(=O)c2ccc(Br)s2)c2ccccc21 | i | 1.2
COc1ccc(NC(=O)CCn2c(=S)[nH]c3ccccc3c2=O)cc1 | i | 1

(next part)
molecule | KCNQ2 inh | KCNQ2 inh baseline
Cc1cccc(Cn2cc3c(=O)n(Cc4cccc(F)c4)nc-3c3ccccc32)c1 | i | -1.2
O=C(NCCc1ccccc1)NC(Cc1ccccc1)C(=O)O (configuration not stated) | i | 0.88
O=C(/C=C/c1ccc([N+](=O)[O-])cc1)NC1CC2CCC1C2 (configuration not stated) | i | 3.7
Cn1c(SCc2ccccc2)nnc1C1CCCNC1 (configuration not stated) | i | 2.5
COc1ccc(C2SCC(=O)N2c2nnc(C34CC5CC(CC(C5)C3)C4)s2)cc1 (configuration not stated) | i | -1.1
COc1ccc(C2SCCN2S(=O)(=O)c2ccc(NC(C)=O)cc2)cc1OC (configuration not stated) | i | -0.66
Fc1ccc(NC(=S)Nc2cccnc2)cc1Cl | i | -1.2
O=C(CC1C(=O)NCCN1Cc1cccc(F)c1F)NCCCC1CCCC1 (configuration not stated) | i | -0.2
CCOC(=O)N1CCC(NC(=O)Cn2nc(Cc3ccncc3)c3ccccc3c2=O)CC1 | i | -0.86
COc1ccc(/C=C2\SC(=S)N(CCCC(=O)Nc3ccc(O)cc3)C2=O)cc1 | i | -0.65
O=C(Nc1c(S(=O)(=O)c2ccc(Cl)cc2)csc1Br)c1ccccc1Cl | i | 0.86
CCCOc1ccc(C(=O)N2CCCc3ccccc32)cc1 | i | -0.95
CCOC(=O)C/C(C)=N/NC(=O)Nc1ccccc1 | i | -0.15
Cc1ccc(-c2nn(CCC(=O)Nc3cccnc3)c(=O)c3ccccc23)cc1 | i | -0.88
CCN(CC)c1nc(-c2nn[nH]n2)nc(N(CC)CC)n1 | i | 0.57
CC(=O)c1ccc(NC(=O)C(NC(=O)c2ccccc2)=C(C)C)cc1 | i | -0.01
CCSc1ncnc2sc(C)c(C)c12 | i | -0.2
CCNS(=O)(=O)c1ccc(CCC(=O)Nc2ccccc2C(=O)OC)cc1 | i | 4.6
CCOc1ccccc1-n1c(SCC(=O)N2CCCc3ccccc32)nnc1-c1cccnc1 | i | 0.16
Cc1ccc(/C=C2\SC(=O)N(CCNC(=O)C3CSC4(C)CCC(=O)N34)C2=O)cc1 (configuration not stated) | i | -0.12

Of the compounds above, these contain bromine:
molecule | KCNQ2 inh | KCNQ2 inh baseline
COc1nc(N(C)S(=O)(=O)c2ccc(C)cc2)nc(C)c1Br | i | 0.69
CC(C)c1ccc(OCC(=O)N2CCN(c3ccccn3)CC2)c(Br)c1 | i | 0.15
COc1ccccc1NC(=O)c1coc(=O)c(Br)c1 | i | 0.03
CCn1c(=N)n(CC(=O)c2ccc(Br)s2)c2ccccc21 | i | 1.2
O=C(Nc1c(S(=O)(=O)c2ccc(Cl)cc2)csc1Br)c1ccccc1Cl | i | 0.86

(further entries)
molecule | KCNQ2 inh | KCNQ2 inh baseline
O=C(COC(=O)/C=C/c1ccccc1[N+](=O)[O-])NC1CCS(=O)(=O)C1 (configuration not stated) | i | 0.91
CC(CCc1ccccc1)NC(=O)[C@@H]1Cc2ccccc2CN1 (some centres not stated) | i | 1.8
CC1(c2ccc([N+](=O)[O-])cc2)NC(=O)N(CC(=O)Nc2cccnc2Cl)C1=O (configuration not stated) | i | 1.3
Cc1c(OCC(=O)N2CCC(C(=O)O)CC2)ccc2c3c(c(=O)oc12)CCCC3 | i | 1.5
COC(=O)C1CN(C(=O)COc2ccc(Cl)cc2Cl)c2ccccc2O1 (configuration not stated) | i | 1.1
CC(=O)Nc1ccccc1N(C)S(=O)(=O)c1ccc(C)cc1 | i | 0.83
Cc1ccc(Cl)cc1NC(=O)CCN1C(=O)C2C3CCC(C3)C2C1=O (configuration not stated) | i | 0.98
O=C(CNc1ccc(Br)cc1)NNC1=NCCC1 | i | -0.46
COc1cccc(C(=O)C2CCCN(Cc3cccn3-c3cccnc3)C2)c1 (configuration not stated) | i | -1.2
Cc1cccc(C)c1N1C(=O)[C@@H]2C(c3ccccc3Cl)=NO[C@@H]2C1=O | i | -1.6
Cc1cccc(/N=C/c2c(O)n(Cc3ccc4c(c3)OCO4)c(=O)c3ccccc23)n1 | i | 0.39
O=C(O)c1cc(-c2ccccc2)c(N2CCOCC2)s1 | i | 1.2
OC1(C#Cc2c(-c3ccsc3)oc3ccc(N4CCOCC4)cc23)CCCCC1 | i | -1.1
CSc1cccc(NC(=O)CN2C(=O)COc3ccc(S(=O)(=O)N4CCOCC4)cc32)c1 | i | -0.06
CC(C)CN1CCN(Cc2ccc3ncccc3c2)CC1CCO (configuration not stated) | i | -1.9
C=CCc1cc(Cl)ccc1OCCCNCCO | i | 1

Whole records, quoted from the list.
Results for COC(=O)C1CN(C(=O)COc2ccc(Cl)cc2Cl)c2ccccc2O1 (configuration not stated) → KCNQ2 inh = i; KCNQ2 inh baseline = 1.1
Results for O=C(CNc1ccc(Br)cc1)NNC1=NCCC1 → KCNQ2 inh = i; KCNQ2 inh baseline = -0.46
Results for COc1cccc(C(=O)C2CCCN(Cc3cccn3-c3cccnc3)C2)c1 (configuration not stated) → KCNQ2 inh = i; KCNQ2 inh baseline = -1.2

The list is partial (hit frequency here may not be typical).
